Menin-MLL FL inh – displaces fluorescein MLL peptide from human menin; Fluorescence polarization, fluorescein-MLL peptide displacement from menin; FP activity change, % at 61.4 µM; 290,000 tested, under 10 active; AID 1766; inconclusive = falling polarisation curve, or a change in total fluorescence; inactive = total fluorescence flat and polarisation flat or rising; no compound was filed as active; the % refers to the polarisation; negative = inhibition;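 note: % of control where 0% means no effect; inhibitors lower the polarisation; unlabelled MLL peptide was the positive control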
TRPV1 PAM – potentiators of human vanilloid receptor 1 (TRPV1); Q8NER1; TRPV1-expressing cells, Fluo-8 calcium influx, capsaicin EC20 potentiation; host cell line not named in the record; control for the full effect not named in the record; potentiation, % at 8.33 µM; actives 0.02% (n = 320,000); active means potentiation above 80%; inconclusive means 30% to 80%; inactive means below 30%; note: 0% is about no effect
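TRPV1-expressing cells were cultured overnight at 35.5C and loaded with Fluo-8 calcium dye for 40 to 90 min at room temperature. After a 10 s baseline, compound was added and calcium influx was read kinetically for 3 min (ex 480/em 520 nm).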
gsp antagonist – antagonists of gsp mutant (McCune-Albright syndrome). AID 624288. actives 0.4% (n = 340,000). gsp-mutant cells, cAMP HTRF, 30 min; control for the full effect not named in the record. Potency, µM (series often up to 76.9 µM), without a hit: at the highest dose activity change, negative = inhibition, most hits filed as inhibitors; active = falling curve of any shape with a large fitted effect; inconclusive = falling curve, mostly with a smaller effect; inactive = flat or rising curve; cell line not stated here;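 note: intracellular cAMP measured with PDE inhibitor Ro 20-1724 present during compound exposure; potency is the fitted concentration of half-maximal effect; % is set by controls: 0 for no effect and ±100 for the full control effect; nearly all actives have a fitted effect of over 65% in size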
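HTRF cAMP measurement after 30 min RT detection following 30 min, 37C compound treatment alongside […] (added as 300 uM solution) in G418-selected cells seeded at 2000/well and grown 16–24 h.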
TRPML1 inh – blocks the human TRPML1 channel; TRPML1-inducible cells, Ca2+ dye fluorescence, FDSS; hits give low values; inhibition of EC80 agonist-evoked calcium signal; actives 0.02% (n = 390,000); activity change, negative = inhibition, % (test concentration not listed); in the data active means activity change below about -50%; inconclusive means about -30% to -50%; inactive means above about -30%;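 note: stimulus is agonist 54-4 at its EC80 concentration; % is set by controls: 0 for no effect and ±100 for the full control effect; compound concentration not given in the record; the text of the record puts the active cut at -80%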
Target sequence (Q9GZU1 whole entry, looked up): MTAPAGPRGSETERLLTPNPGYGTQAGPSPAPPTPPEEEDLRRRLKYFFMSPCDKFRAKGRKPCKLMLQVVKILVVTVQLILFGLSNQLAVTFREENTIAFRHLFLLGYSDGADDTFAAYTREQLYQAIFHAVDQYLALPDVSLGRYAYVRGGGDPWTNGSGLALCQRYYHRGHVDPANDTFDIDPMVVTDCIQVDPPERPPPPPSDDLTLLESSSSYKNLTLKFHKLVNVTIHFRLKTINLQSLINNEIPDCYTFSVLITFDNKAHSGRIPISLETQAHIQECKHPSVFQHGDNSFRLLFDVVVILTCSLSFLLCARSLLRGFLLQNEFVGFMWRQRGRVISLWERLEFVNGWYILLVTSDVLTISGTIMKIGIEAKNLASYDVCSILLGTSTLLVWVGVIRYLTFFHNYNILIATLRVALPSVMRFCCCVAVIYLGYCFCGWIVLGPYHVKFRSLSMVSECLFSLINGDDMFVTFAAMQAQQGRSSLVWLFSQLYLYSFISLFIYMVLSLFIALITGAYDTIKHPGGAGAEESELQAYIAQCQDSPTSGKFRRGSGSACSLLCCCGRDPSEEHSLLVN
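Tet-induced TRPML1-DL cells loaded with Ca8 no-wash calcium dye were read kinetically on FDSS. Compound addition was followed by EC80 agonist 54-4 (4 uM final); inhibition was read over 110 s.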
gsp ag – agonists of gsp mutant (McCune-Albright syndrome); gsp mutant cells, cAMP HTRF, 30 min; control for the full effect not named in the record; Potency, µM (top dose mostly 76.9 µM), inactives show at the highest dose activation (cAMP increase), actives largely listed as activators; actives 0.13% (n = 340,000); AID 624287; active = well fitted activation curve with a large enough effect; inconclusive = small, poorly fitted or top-dose-only effect, or another doubt; inactive = no such curve, though single readings can be large or run the other way; cell line not stated here;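 note: phosphodiesterase inhibitor Ro 20-1724 added with compounds to block cAMP breakdown; potency is the fitted concentration of half-maximal effect; nearly all actives have a fitted effect of over 60% in size; about a fifth of the inactives were tested at one dose only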
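Cells in DMEM/10% FBS with G418 were pretreated with compounds in DMSO plus […] (300 uM stock) for 30 min at 37C. cAMP was measured by HTRF (cAMP-d2 plus anti-cAMP antibody-K) after 30 min at room temperature.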
ClpP mod – qHTS Assay for Activators of ClpP; ATP-dependent Clp protease proteolytic subunit (Bacillus subtilis (strain 168)), P80244; purified B. subtilis ClpP, FRET peptide cleavage, 20 min; Potency, µM (titrated, usually from 57.5 µM), without a hit: at the top dose activity change, negative = active; actives 1.9% (n = 340,000); active = well fitted falling curve with a large enough effect; inconclusive = small, poorly fitted or top-dose-only effect; inactive = no such curve, though single readings can be large or run the other way; note: potency is the fitted concentration of half-maximal effect; the source files actives as falling curves though it sought activators and does not explain the sign; nearly all actives have a fitted effect of over 65% in size; many hits overshoot -100%
Target sequence (P80244 whole entry, looked up): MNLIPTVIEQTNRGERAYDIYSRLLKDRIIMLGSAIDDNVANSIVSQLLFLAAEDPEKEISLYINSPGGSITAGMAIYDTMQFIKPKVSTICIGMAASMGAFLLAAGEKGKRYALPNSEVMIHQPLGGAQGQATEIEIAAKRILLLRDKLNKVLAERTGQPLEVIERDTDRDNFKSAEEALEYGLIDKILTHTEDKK
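Buffer: 100 mM Tris/HCl pH8, 100 mM KCl, 0.05% low protease BSA, 2.5% glycerol, 0.01% Tween-20. ClpP 10 microg/mL final; 20 min RT; delta FRET normalized to ADEP and DMSO controls.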
Sfp PPTase inh – blocks B. subtilis Sfp PPTase activity | Q9F4F7 | Biochemical Sfp PPTase activity, qHTS | Potency, µM, without a hit: max response, negative = inhibition, usual class: inhibitors | actives 3.5% (n = 310,000) | AID 1490; active = well fitted inhibition curve with a large enough effect; inconclusive = small, poorly fitted or top-dose-only effect, or another doubt; inactive = no such curve, though single readings can be large or run the other way;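 note: the enzyme is Sfp with the accession as filed and its product quenches rhodamine fluorescence; potency is the fitted concentration of half-maximal effect; 0% = enzyme reaction without inhibitor and -100% = no enzyme wells; top concentration of the series not given in the record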
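Buffer: 50 mM Hepes-Na pH 7.6, 10 mM MgCl2, 0.01% Nonidet P-40, 0.01% BSA. Enzyme 15 nM, pre-exposed to compound 15 min; substrates then added and fluorescence change tracked over 30 min.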
The depositor's hits bear a star; ? = inconclusive; . = no result given; & = joins results of further samples; [ ] = dose if it differs, or a comment.

The line under a structure holds: Menin-MLL FL inh, TRPV1 PAM, gsp antagonist, TRPML1 inh, gsp ag, ClpP mod, Sfp PPTase inh
O=C(NC1CCCCC1)c1cccc(S(=O)(=O)N2CCOCC2)c1
  -0.2, -1, 2%, -7, 11%, -0.6%, -1%
COc1cc(NC(=O)[C@@H]2CCCN2S(=O)(=O)c2cccc3cccnc23)cc(OC)c1OC
  ., ?, 4%, 5, ?, -0.2%, .
Cc1nc2nc(N)nn2c(C)c1C/C=C/c1ccccc1
  0.0, -2, -2%, 11, 16%, -25%, 7%
O=C(O)c1ccccc1OCc1ccccc1Cl
  2.3, -13, -3%, -5, 29%, -0.4%, -13%
O=[N+]([O-])c1ccc2[nH]c(O)c(N=NC3CCS(=O)(=O)C3)c2c1 (configuration not stated)
  -0.6, 4, -19%, -8, -3%[15.4 µM], ., 15%
CSc1ccc(C#N)cc1NC(=O)c1ccc(Cl)cc1Cl
  -1.6, 3, 5%, 7, 4%, 7.2%, 6%
O=C(/C=C/c1cccs1)Nc1nccs1
  0.3, -4, -7%, 22, 8%, 1.5%, 10%
O=C1C2CC=CCC2C(=O)N1Cc1nnc(-c2ccccc2Br)o1 (configuration not stated)
  9.6, 0, -8%, 9, -1%[15.4 µM], ., 17%
O=C1C2C3C=CC([C@@H]2C(=O)N1c1nccs1)C31CC1 (some centres not stated)
  1.5, 1, 6%, -4, -18%, -0.7%, -5%
Cc1cc(C)cc(C(=O)N2CCN(c3ccccn3)CC2)c1
  0.6, -3, 17%, -8, 1%, ., 5%
CC(C)(C)NC(=O)NC(=O)CSc1ccc(S(=O)(=O)N2CCCCC2)cn1
  ., -14, -24%, 15, -11%, 2.7%, .
Cc1ccc(S(=O)(=O)Nc2c(C)[nH]c(=O)[nH]c2=O)cc1C
  5.7, -5, 4%, -5, -19%, 1.2%, 23%
O=C(NNC1=NC2(CCCC2)Cc2ccccc21)c1cccnc1
  -3.3, 0, ., -10, 6%[15.4 µM], ., 26%
CC(C)N(Cc1nc(-c2ccc(Cl)cc2)no1)C(=O)c1cccs1
  -2.2, 19, -13%, 6, ?, -1.2%, -1%
CCOC(=O)c1c(N)ssc1=S
  1.9&1.2, ?, 6%, 5, -1%, -1.3%, 22µM*
Fc1ccc(OCc2nnc(-c3ccccc3Br)o2)c(Cl)c1
  4.2, 1, -6%, -12, 1%[15.4 µM], ., -7%
CCOc1ccccc1C(O)C1=CC(=O)c2ccccc2C1=O (configuration not stated)
  ., ., 11%, -7, -3%[15.4 µM], 0.6%, .
Cc1ccccc1OC(=O)c1cccnc1
  -1.3, ?, 12%, 7, ?, 1.5%, 11%
COc1ccc(OCc2nnc(SCC(=O)Nc3oc(C)c4c(C)n[nH]c(=O)c34)n2C)cc1
  ., ., ., -10, -37%, -3.3%, .
COc1cc2ccc(=O)oc2c(O[C@@H]2O[C@H](CO)[C@@H](O)[C@H](O)[C@H]2O)c1O
  ?, -16, 8%&12%, -14&0, ?, 3.4%&4.2%, 5%
CC(C)(CO)Cc1cc(C(C)(C)C)c(O)c(C(C)(C)C)c1
  -2.9&1.7, -22, -14%, -8, ., -2.1%, 16%
O=C(Cn1cc(C(F)(F)F)ccc1=O)Nc1ccc(N2CCOCC2)cc1
  -1.8, -7, 15%, 12, -2%[15.4 µM], ., -18%
CC(C)(C)c1ccc(-c2nnc(SCC(=O)Nc3sc4c(c3C#N)CCCC4)o2)cc1
  7.9, -4, 12%, 51, -28%, 12%, -12%
O=C(C(Cc1ccccc1)n1cccc1)N1CCN(c2cccc(Cl)c2)CC1 (configuration not stated)
  -0.6, 0, -19%, 41, 3%, 0.2%, 13%
CCCCN1C(=O)CC(N2CCOCC2)C1=O (configuration not stated)
  -0.1, 5, 16%, -14, -3%, 0.7%, -4%
CCN(CC)S(=O)(=O)c1cccc(C(=O)NCC2(N3CCOCC3)CCCCC2)c1
  ., -15, -7%, 2, 11%, -1.7%, .
Cn1nccc1C(=O)NC1CCCc2c1cnn2-c1cc(F)cc(F)c1 (configuration not stated)
  ., -8, -9%, -14, 1%, -2.8%, 11%
CCOCCCNC(=O)c1cn2c3c(ccc(Cl)c3c1=O)OC(C)C2 (configuration not stated)
  -1.9, 9, 27%, 1, ?, 4.0%, 1%
O=[N+]([O-])c1cccnc1Sc1ccccc1Cl
  ., ., 0%, -4, 14%[15.4 µM], ., .
Cc1ccc(S(=O)(=O)NCc2ccco2)cc1C
  3.0, -16, 3%, -7, -19%, -6.2%, 6%
CC(C)(C)c1ccc(NC(=O)COC(=O)c2ccc3ncsc3c2)cc1
  ., 3, -7%, -20, -1%, -3.0%, .
CC(C)N(Cc1ccccc1)C(=O)COC(=O)c1c(F)cccc1F
  ., ., -5%, 5, ?, ., .
COc1cc(NC(=O)C/C(C)=N/NC(=O)C(=O)NCCO)c(OC)cc1Cl
  3.7, 7, -15%, -23, 14%[15.4 µM], -0.4%, -3%
C=CCn1c(COc2ccc(F)cc2)nnc1SCC(=O)NC(=O)NCc1ccco1
  6.5, -6, -11%, 13, 6%, -1.3%, -26%
CC1(C)CC2CC(C)(CN2C(=O)COC(=O)c2cccnc2Cl)C1 (configuration not stated)
  ., ., 8%, -7, -1%, 0.5%, .
Cc1ccc(Nc2c(-c3ccc(N4CCOCC4)cc3)nc3cnccn23)cc1
  5.6, -5, 2%, 11, -6%[15.4 µM], ., -5%
N#Cc1c(NC(=O)CSc2nnnn2C2CCCCC2)sc2c1CCCC2
  1.8, 2, 4%, 12, 4%, -2.2%, 9%
C[C@@]12CC(=O)NC1N(C(=O)c1cccc(C(F)(F)F)c1)C(c1ccccc1O)C2 (some centres not stated)
  3.5, -20, 14%, 19, ?, 0.2%, 19%
CCc1nc(SCC(=O)Nc2nnc(CC(C)C)s2)n[nH]1
  -0.1, -10, -9%, 11, -21%, ., 3%
O=C(COc1ccc(Cl)cc1)Nc1nnc(-c2ccc3c(c2)CCCC3)o1
  0.8, 19, 2%, 14, -11%, -3.5%, ?
Cc1ccc(NC(=O)CN(C)C(=O)c2ccc(OCc3cn4ccccc4n3)cc2)cc1
  ., -4, -9%, -8, -10%, 4.3%, .
CC(=O)Nc1ccc(OCC(O)Cn2nc(C)c(C)c2C)cc1 (configuration not stated)
  -6.7, -7, 6%, 23, 7%[15.4 µM], ?, 16%
CC(=O)N1C[C@H]2CON(C)[C@H]2C[C@H]1c1cccc(-c2ccccc2)c1
  ., ., 5%, 2, ., 0.2%, .
C/C(Cn1nnc([N+](=O)[O-])n1)=N\NC(=O)c1ccccc1Cl
  5.0, -16, -5%, 9, -21%, 0.6%, ?
NC(=O)C(CCc1nc2ccccc2[nH]1)NS(=O)(=O)c1ccccc1 (configuration not stated)
  ., ., ., -20, ?, -3.4%, .
CC1(C(=O)N/N=C/c2ccccc2)CC1(Br)Br (configuration not stated)
  -3.8, 8, -3%, -9, -1%[15.4 µM], -1.4%, 0%
CCCC(=O)c1c[nH]c(C(=O)NCCc2ccccn2)c1
  -0.6, 1, 5%, -14, 3%, 4.0%, 10%
O=C1CCCc2nc(NCc3ccco3)ncc21
  -2.1, 11, 3%, -9, -58%[inhibitor], -8.2%, 18%
CCOc1ncccc1C(=O)Nc1ccc(S(=O)(=O)N2CCCC2)cc1
  0.6, -8, 7%, 11, ?, ., 5%
Cc1cc(C)c(S(C)(=O)=O)c(Oc2ccc(F)cc2)n1
  -1.5, 15, 11%, 21, -9%, -0.6%, 15%
C=CCC(C)(NCc1ccccc1)c1ccco1 (configuration not stated)
  4.4, 2, 20%, 16, 9%, 0.4%, -5%
Cc1ccc(CNC(=O)c2cc3c(-c4ccc(Cl)cc4)nn(C)c3s2)o1
  2.5, 26, -21%, 14, 10%, 4.5%, ?
Cc1sc(NC(=O)C2CSC3(C)CCC(=O)N23)nc1-c1ccc(F)cc1 (configuration not stated)
  1.7, 6, ?, 61, 15%, -1.0%, -7%
O=C(Cn1ccc2ccccc2c1=O)NCC(=O)Nc1ccc(F)cc1F
  0.7, 1, -3%, 9, ?, ., 14%
CC(C)[C@@H](C(=O)OCC(=O)Nc1ccc2c(c1)OCO2)N1C(=O)c2ccccc2C1=O
  0.0, 25, -28%, 2, -75%[inhibitor], 1.4%, 1%
O=C(Nc1cccc(-c2cn3ccsc3n2)c1)c1ccccc1
  2.2, 7, -18%, -8, 20%, 0.9%, 2%
O=C(CCC(=O)Nc1ccc(F)cc1)N/N=C/c1ccc(O)cc1
  9.3, 8, 6%, 7, 19%[15.4 µM], -0.9%, 7%
O=C1NCCN1Cc1ccc(Cl)cc1
  -3.6, 8, 8%, 16, 25%[15.4 µM], -1.4%, 18%
O=C(Nc1ccc(Nc2ccncc2)cc1)c1ccc([N+](=O)[O-])cc1
  -3.4, -6, -5%, 8, 23%, 1.7%, 13%
CC(C)n1cc(-c2ccc(Cl)cc2)cc(C#N)c1=O
  4.2, -3, 2%, 22, 6%, 32µM*, -16%

(listing goes on)
The line under a structure holds: Menin-MLL FL inh, TRPV1 PAM, gsp antagonist, TRPML1 inh, gsp ag, ClpP mod, Sfp PPTase inh
O=C1NC(=O)/C(=C\c2ccccc2OCc2cccc([N+](=O)[O-])c2)N1
  -0.3, 2, -18%, 36, -42%[inhibitor], -1.0%, 5%
CCOC(=O)c1c(N)sc2c(OC)c(Br)ccc12
  1.7, -14, -15%, 3, 0%, -1.3%, -9%
NS(=O)(=O)c1ccc(CNC(=S)Nc2ccc(Cl)c(Cl)c2)cc1
  -1.1, -5, 2%, 25, -12%, ., ?
CC(C)Cc1nnc(NC(=O)CN2C(=O)NC3(CC(C)CC(C)(C)C3)C2=O)s1 (configuration not stated)
  ., 6, 7%, -9, -38%[inhibitor], 0.3%, .
O=Cc1ccc(OCc2ccc3ccccc3c2)cc1
  -0.5, ?, -11%, 0, -5%[15.4 µM], 0.9%, -1%

Source: PubChem BioAssay (National Center for Advancing Translational Sciences (NCATS))

Random draw from the library. About 4.9% of those tested had a hit in this group.
